Screens: PubChem, National Center for Advancing Translational Sciences (NCATS)
D2 agonist: human D2 receptor agonism in beta-arrestin assay; P14416; DiscoveRx PathHunter D2 beta-arrestin, luminescence, 90 min; 100% = 57 uM dopamine signal; AID 624465; activation, % (test concentration not listed); 360,000 compounds, 0.084% hits; in the data active = activation above about 40%; inconclusive = about 15% to 40%; inactive = below about 15%; also: compound concentration not given in the record; the text of the record calls up to 30% inactive
Target sequence (P14416 whole entry, looked up): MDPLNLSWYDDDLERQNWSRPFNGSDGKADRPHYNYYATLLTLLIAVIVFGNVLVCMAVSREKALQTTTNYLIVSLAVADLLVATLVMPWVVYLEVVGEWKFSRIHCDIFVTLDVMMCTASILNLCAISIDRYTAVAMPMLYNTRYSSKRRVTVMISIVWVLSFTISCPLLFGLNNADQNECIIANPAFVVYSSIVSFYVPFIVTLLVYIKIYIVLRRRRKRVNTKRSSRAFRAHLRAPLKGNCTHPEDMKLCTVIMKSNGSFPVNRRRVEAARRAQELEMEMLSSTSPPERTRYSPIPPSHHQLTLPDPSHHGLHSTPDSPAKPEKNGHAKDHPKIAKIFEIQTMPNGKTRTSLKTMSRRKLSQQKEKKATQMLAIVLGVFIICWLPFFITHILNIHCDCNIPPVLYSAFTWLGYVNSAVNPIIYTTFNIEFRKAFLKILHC
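Agonist mode: compounds alone added to overnight-plated D2 PathHunter cells for 90 min at 37 C, with 57 uM final dopamine (EC100) defining full response. Beta-arrestin recruitment detected by chemiluminescent reagent, read after 1 h at ambient temperature.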
CtBP-E1A inh: CtBP/E1A binding inhibition; AlphaScreen GST-E1A/His-CtBP binding, 1536-well; stronger effect = lower value; control for the full effect not named in the record; activity change, % (concentration not given with the values); 340,000 compounds, 0.49% hits; AID 651724; in the data active means activity change below about -65%; inconclusive means about -30% to -65%; inactive means above about -30%; also: % is scaled to controls: 0 for no effect and ±100 for the full control effect
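Protein mix (5X: 125 nM each GST-E1A, His-CtBP) was incubated with pinned compound 2 h at 37 deg C in dark, in 50 mM Tris pH 8.0 buffer with 300 mM NaCl. Glutathione donor and nickel acceptor beads followed; AlphaScreen signal read after 1 h.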
Six1-Eya2 inh: Six1/Eya2 interaction inhibition | Q15475+O00167 | activity change, % (test concentration not listed) | 360,000 compounds, 0.56% hits | AlphaScreen GST-Six1/His-Eya2 binding, biochemical; stronger effect = lower value; control for the full effect not named in the record; in the data active = activity change below about -65%; inconclusive = about -30% to -65%; inactive = above about -30%; also: % is scaled to controls: 0 for no effect and ±100 for the full control effect
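AlphaScreen with GST-Six1 and His-Eya2 (5X mix: 250 nM and 500 nM), glutathione donor and nickel acceptor beads; buffer 50 mM Tris pH 8.0, 300 mM NaCl, 1 mM TCEP; 1 h at 37 C in the dark.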
TRPML1 blocker: human mucolipin-1 channel inhibition; activity change, negative = inhibition, % (concentration not given with the values); AID 624415; TRPML1-inducible cells, Ca2+ dye fluorescence, FDSS; stronger effect = lower value; inhibition of EC80 agonist-evoked calcium signal; 390,000 compounds, 0.02% hits; in the data active means activity change below about -50%; inconclusive means about -30% to -50%; inactive means above about -30%;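 also: stimulus is agonist 54-4 at its EC80 concentration; % is scaled to controls: 0 for no effect and ±100 for the full control effect; the text of the record puts the active cut at -80%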
Target sequence (Q9GZU1 whole entry, looked up): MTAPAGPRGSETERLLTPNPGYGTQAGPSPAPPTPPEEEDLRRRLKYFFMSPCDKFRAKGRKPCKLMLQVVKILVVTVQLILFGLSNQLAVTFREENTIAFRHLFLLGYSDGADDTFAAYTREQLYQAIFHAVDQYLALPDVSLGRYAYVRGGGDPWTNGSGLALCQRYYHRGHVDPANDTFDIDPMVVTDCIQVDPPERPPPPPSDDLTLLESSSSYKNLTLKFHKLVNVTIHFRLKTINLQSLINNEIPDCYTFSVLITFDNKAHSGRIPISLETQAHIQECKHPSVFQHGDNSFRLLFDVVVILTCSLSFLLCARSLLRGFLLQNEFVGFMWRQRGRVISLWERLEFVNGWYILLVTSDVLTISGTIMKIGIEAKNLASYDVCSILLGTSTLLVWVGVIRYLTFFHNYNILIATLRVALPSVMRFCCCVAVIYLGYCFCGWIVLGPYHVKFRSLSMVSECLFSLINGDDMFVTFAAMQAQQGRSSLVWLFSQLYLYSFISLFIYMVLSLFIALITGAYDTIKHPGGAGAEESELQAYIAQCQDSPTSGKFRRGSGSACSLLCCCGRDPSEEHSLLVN
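Calcium fluorescence in TRPML1-DL cells induced overnight with Tet: a 110 s read after compound pin addition, then a 110 s antagonist read after challenge with 54-4 at 4 uM final (EC80).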
TRPML1 ag: human mucolipin-1 channel agonism; Q9GZU1; TRPML1-expressing cells, Ca2+ dye fluorescence, FDSS; host cell line not named in the record; reference of the full effect not given here; activation, % (test concentration not listed); 410,000 compounds, 0.12% hits; AID 624414; in the data active = activation above about 50%; inconclusive = about 30% to 50%; inactive = below about 30%; also: 0% is about no effect; the text of the record puts the active cut at 80%
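Cells: TRPML1-DL, 1X Tet inducer, ~16 h at 37 degrees C/5% CO2. Dye: ABD Ca8 no-wash + quencher, 45-90 min RT. Read: 10 s baseline, compound add, 110 s agonist phase; 54-4 EC80 (4uM final), 110 s antagonist phase.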
PINK1 expr mod: changes PINK1 expression; 410,000 compounds, 0.2% hits; PINK1 immunofluorescence, high-content cytometry, 24 h; Potency, µM (highest dose often 76.6 µM), for inactives: at the top dose activation (PINK1 increase), most hits filed as activators; AID 624263; active = well fitted activation curve with a large enough effect; inconclusive = small, poorly fitted or top-dose-only effect; inactive = flat fitted curve, though single readings scatter; cell line not stated here;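 also: potency is read from the fitted curve at half-maximal effect; % of control where 0% means no effect; nearly all actives have a fitted effect of over 65% in size; a mitochondrial uncoupler was the plate control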
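Compound titrations (5 concentrations, 24 h) on a stable cell line; DMSO and CCCP controls. Endpoint: fixed-cell PINK1 immunofluorescence with mitochondrial, cell and nuclear markers, scanned by microplate cytometer.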
* hit, by the source's call; ? = inconclusive; . = not tested or not shown; & = joins results of further samples; [ ] = remark or other dose.

Structure	D2 agonist	CtBP-E1A inh	Six1-Eya2 inh	TRPML1 blocker	TRPML1 ag	PINK1 expr mod
C=CCN(C(=O)CNS(=O)(=O)c1ccccc1)C(C(=O)NCCOC)c1ccncc1 (stereo not drawn)	-1.9	7	4	-7	1.0	0.2%
Cc1ccc(-n2nc3c(N4CCC(C(=O)NCc5cccc(F)c5)CC4)nnc(C)c3c2C)cc1	-0.4	.	-10	-3	0.9	-1.8%
Cc1c(C(=O)N2CC3(CC(c4cccc(NC(=O)[C@H]5CCC(=O)N5)c4)=NO3)C[C@@H]2C(N)=O)cc([N+](=O)[O-])cc1[N+](=O)[O-] (stereo partly drawn)	7.5	1	4	-9	-1.2	-0.1%
Cc1ccc(CNC(=O)c2cccc(NC(=O)N3CCSc4ncccc43)c2)cc1	.	.	.	-16	0.0	1.2%
O=C(Cc1ccccc1F)Nc1nc2ccccc2[nH]1	-0.7	0	-5	62	-0.5	3.1%
Cc1ccc(S(=O)(=O)Nc2nccs2)cc1[N+](=O)[O-]	-4.5	-3	-5	5	-0.8	2.5%
COc1cccc(CNS(=O)(=O)c2ccc(-c3cc(C(F)(F)F)on3)s2)c1	.	.	.	20	0.4	3.8%
NC(=O)c1ccccc1N1CCCCC1	-1.2	-18	10	16	3.8	5.4%
O=C(c1cccnc1)N1CCC2CC1c1c(Cl)cccc12 (stereo not drawn)	-8.5	2	5	6	-0.1	0.5%
COc1ccc(C(=O)N2CCN(S(=O)(=O)N3CCOCC3)CC2)cc1OC	1.3	-7	-4	7	0.6	0.6%
COc1ccc(C(=O)/C=C/c2ccc(OC)c(COc3ccccc3F)c2)cc1	-2.6	31	19	15	2.1	5.9%
Cc1ccccc1CNC(=O)c1ccc2sc([C@H]3C[C@H](O)[C@@H](CO)O3)nc2c1	-3.2	-10	-12	.	-0.8	1.4%
C=CCn1c(O)c(N=NC(=S)Nc2ccc(OC)cc2)c2ccccc21	-5.4	-18	?	-11	-1.1	5.9%
CCCN1CCN(C(c2cc3cc4c(cc3[nH]c2=O)OCO4)c2nnnn2C(C)(C)C)CC1 (stereo not drawn)	-1.8	11	6	-1	-0.3	-1.7%
O=C(COC(=O)c1ccc[nH]c1=O)NCCc1ccc(Cl)cc1Cl	-1.3	9	8	-3	0.4	-1.3%
O=C(Cc1cccs1)Nc1ccc(F)c(F)c1	-0.9	2	1	11	0.2	-1.2%
CSc1ccccc1NS(=O)(=O)c1cccc2nonc12	0.5	0	12	29	1.3	0.8%
O=C(CN1C(=O)COc2ccc(Cl)cc21)Nc1cccc(F)c1	.	.	.	-8	1.4	-0.7%
C=CCn1cnc2sc(C(=O)Nc3ccccc3OC)c(C)c2c1=O	-1.1	.	-2	5	0.2	-1.4%
COc1ccccc1N1CCN(/N=C/c2ccc(OC)c(OC)c2OC)CC1	0.2	-19	-27	-5	1.3	-0.1%
CCOC(=O)Cc1nnc(Nc2ccc(C(=O)NC)cc2)c2ccccc12	-4.3	-7	-1	-6	0.1	1.5%
O=C(NCc1ccc2c(c1)CCO2)Nc1cccc(C(F)(F)F)c1	-2.0	0	-9	0	2.4	2.3%
CN1C2CCC1CC(NS(=O)(=O)c1ccc(C#N)cc1)C2 (stereo not drawn)	-2.8	4	4	-4	-0.3	1.0%
COC(=O)C1=C(C)NC(C)=C(C(=O)OCC(C)C)C1c1ccccc1[N+](=O)[O-] (stereo not drawn)	3.6	?	-6	15	2.2	2.4%
COc1cccc(-c2noc(-c3cc4ccccc4oc3=O)n2)c1OC	.	.	.	-3	-0.8	-0.8%
O=C(NC(=S)NCc1ccncc1)c1ccccc1	1.6	.	11	-3	-0.7	1.5%
CCOc1ccc(S(=O)(=O)NCCCn2ccnc2)cc1NC(C)=O	-2.2	7	9	-3	0.3	2.9%
CC(=O)c1ccc(N2CCN(C(=O)CS(=O)(=O)c3cccc4nsnc34)CC2)cc1	.	.	.	-3	0.6	-4.1%
Cc1ccc(C)c(NC(=O)c2cc3ccccn3n2)c1	-7.3	6	3	9	0.4	2.3%
O=C(CSc1cccc[n+]1[O-])NCC1CCCCC1	-2.4	-5	2	7	0.0	0.2%

A portion from further up, for reference:
Structure	D2 agonist	CtBP-E1A inh	Six1-Eya2 inh	TRPML1 blocker	TRPML1 ag	PINK1 expr mod
C=CCN(C(=O)CNS(=O)(=O)c1ccccc1)C(C(=O)NCCOC)c1ccncc1 (stereo not drawn)	-1.9	7	4	-7	1.0	0.2%
Cc1ccc(-n2nc3c(N4CCC(C(=O)NCc5cccc(F)c5)CC4)nnc(C)c3c2C)cc1	-0.4	.	-10	-3	0.9	-1.8%

Remaining list, next part
Structure	D2 agonist	CtBP-E1A inh	Six1-Eya2 inh	TRPML1 blocker	TRPML1 ag	PINK1 expr mod
Cc1c(C(=O)OCC[N+]2(C)CCCCC2)oc2ccccc12	-2.3	-16	8	-12	2.0	0.6%
O=C(N/N=C/c1ccc(Cl)c([N+](=O)[O-])c1)c1cc(-c2ccc3c4c(cccc24)CC3)n[nH]1	-1.8	0	-1	5	0.0	0.0%
Cc1ccc(NC(=O)Cc2ccc(NC(=O)N3CCCCc4ccccc43)cc2)cc1	.	.	.	8	-1.0	2.7%
CCOc1ccccc1CN1CCC(O)CC1	-1.1	4	6	12	0.4	11%[38.3 µM]
Cc1ccc(S(=O)(=O)NC(=O)C2(C)CCN2C(=O)c2cccc(F)c2)cc1 (stereo not drawn)	-2.2	-1	-1	.	-0.4	1.3%
COc1ccc(/C(=C\Nc2ccc(C)c(C)c2)C(C)=O)cc1OC	-0.3	11	-3	17	1.7	0.7%
CC(=NCCc1c(C)[nH]c2ccc(C)cc12)C1=C(O)CC(c2ccccc2)CC1=O (stereo not drawn)	-12	23	?	23	4.0	29%
CCCN=C1N(CC)C[C@@H]2[C@@H]3C(=O)N(Cc4ccccc4)C(=O)[C@@H]3[C@](C)(C(=O)OC)N12	-0.1	1	5	7	2.1	-0.2%
CCC(=O)Nc1nonc1-c1nc2ccccc2n1CCC(C)C	2.5	-2	10	35	2.5	2.1%
CN(Cc1ccccc1)C(=O)c1ccc2c(c1)OCO2	-2.1	-2	6	16	0.2	2.5%
Cc1ccc(C(=O)Nc2ccc3oc(-c4cccnc4)nc3c2)c(Cl)c1	.	.	.	-7	-1.3	12%
CCOc1ccccc1N1CCN(C(=O)c2ccc(S(=O)(=O)Nc3ccccc3)cc2)CC1	4.8	.	-8	-2	0.0	-1.8%
C[C@H](CO)N1C[C@H](C)[C@@H](CN(C)Cc2ccc(-c3ccccc3)cc2)Oc2ncc(C#C[C@@H](C)O)cc2C1=O	-2.7	3	-3	-9	0.1	2.0%
CC(C)CCN1CCN(Cc2nc(-c3ccccc3)cs2)CC1CCO (stereo not drawn)	0.2	6	-1	8	0.0	-0.2%
N#CC(c1ccc([N+](=O)[O-])cc1)C(CC(=O)c1ccccc1)c1ccccc1 (stereo not drawn)	-1.9	?	-24	25	3.2	-1.8%
COC(=O)c1ccc(N2NC(=O)/C(=C/c3cc(OC)c(O)c(OC)c3)C2=O)cc1	-2.4	-2	-12	3	1.2	3.6%
CS(=O)(=O)N(CC(=O)N/N=C/c1ccccn1)c1ccc(Oc2ccccc2)cc1	-4.2	.	?	-2	-0.4	1.9%
CC(C)N1C(=O)CCC1C(=O)O (stereo not drawn)	0.5	5	6	-23	-0.4	1.9%
O=C1N=c2ccccc2=C1c1sc(=S)n(NC(=O)c2ccccc2)c1O	8.4	?	?	2	1.9	0.5%
O=C(c1ccccc1Cl)N1c2ncnn2C2(CCCCC2)[C@@H]2CCCC[C@@H]21	.	.	.	?	-0.5	-0.3%
CCSc1ncc(Cl)c(C(=O)Nc2c(C(=O)Nc3cccc(C)c3)oc3ccccc23)n1	.	.	.	-9	0.2	0.5%
O=C(CCNC(=O)c1ccc(Cl)cc1)NCC(c1ccco1)N1CCCCC1 (stereo not drawn)	-2.6	-1	4	-8	0.5	-1.3%
CC1CCCCC1NC(=O)CSc1nnc(C(F)(F)F)n1C (stereo not drawn)	-1.9	8	2	-3	-0.3	-1.0%
Cc1cccc(-c2nnc(SCC(=O)N3CCCCC3)o2)c1	.	.	.	39	1.1	0.6%
O=S(=O)(NCc1ccc(F)cc1)c1cc(Br)ccc1Br	-0.7	3	7	-10	-0.5&0.5	5.2%
COc1ccc(C(=O)Cn2c(=O)oc3ccc(C)cc32)cc1	-6.1	.	5	10	3.3	-1.4%
COc1ccccc1NCC(=O)NC(=O)NC1CCCCC1	-0.2	-5	-15	19	-0.2	9.0%
CCN(CC)C(=O)Cn1cc(C(=O)C(=O)N2CCN(Cc3ccc4c(c3)OCO4)CC2)c2ccccc21	0.4	3	-12	-4	-0.2	-1.6%
O=C(NCCC1=CCCCC1)c1cc(S(=O)(=O)N2CCOCC2)ccc1Cl	-2.0	-6	5	7	2.4	2.7%
C=C(C)c1cccc(C(C)(C)NC(=O)NCc2ccc(OC)cc2)c1	-3.0	6	2	-9	0.1	2.5%
COc1cc(OC)cc(C(=O)NCC(=O)OCc2csc(-c3ccccc3)n2)c1	-3.6	-20	-21	35	0.5	24%
CC(=O)c1ccc(N2CCN(c3ccc(NC(=O)c4ccc(F)cc4)cc3C(=O)O)CC2)cc1	.	.	.	-11	0.6	0.4%
CC(C)Cn1c(N)c(C(=O)COC(=O)CCc2nc3ccccc3s2)c(=O)n(C)c1=O	2.6	4	-3	-7	0.5	0.4%
CCn1cc(CN2CCC(n3nccc3NC(=O)c3ccccc3C)CC2)c(C)n1	-0.3	6	12	59	0.3	2.7%
CCN(CCCNC(=O)CCC(=O)N1CCOc2ccccc21)Cc1ccccc1	-3.8	-2	3	-13	0.3	-0.8%
Nc1cccc(-n2nnnc2CN2CCOCC2)c1	-0.3	8	-7	-11	-0.2	2.3%
